FGF22 binding = binders of recombinant human FGF22 by thermal shift; Q9HCT0; SYPRO orange fluorescence; percent of sucrose octasulfate shift, DMSO zero; calls only at 9.99 µM; 340,000 compounds, 1.5% hits; AID 651658;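 active = melting point raised past a set limit in the mean and every replicate; inconclusive = no clear call; three in four hits are not shown here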
Target sequence (Q9HCT0 whole entry, looked up): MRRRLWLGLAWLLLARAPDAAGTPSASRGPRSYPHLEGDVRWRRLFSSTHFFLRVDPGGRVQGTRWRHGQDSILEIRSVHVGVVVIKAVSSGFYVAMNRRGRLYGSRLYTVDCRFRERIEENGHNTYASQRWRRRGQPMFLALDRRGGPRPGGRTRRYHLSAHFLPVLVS
ALR H2O2 inh = human ALR oxidase inhibition via reduced H2O2. P55789. purified ALR, DTT oxidation, H2O2 HRP-luminol luminescence. inhibition, % (concentration not given with the values). 290,000 compounds, 3.8% hits. AID 485317;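 active = mean and each replicate at 75% or more; inconclusive = only one of the two met; inactive = neither met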;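 also: stock transfer was 7.5 nL into about 7.5 µL; 0% = neutral wells and 100% = wells with inactivated enzyme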
Target sequence (P55789 whole entry, looked up): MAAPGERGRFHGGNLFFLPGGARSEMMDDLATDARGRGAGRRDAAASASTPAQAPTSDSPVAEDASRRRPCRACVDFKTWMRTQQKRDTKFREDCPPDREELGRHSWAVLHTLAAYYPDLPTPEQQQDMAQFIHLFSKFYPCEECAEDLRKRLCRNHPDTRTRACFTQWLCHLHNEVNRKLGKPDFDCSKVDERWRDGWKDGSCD
E coli growth = E. coli growth inhibition; Escherichia coli growth, OD600, 23 h; hits give low values; OD600 absorbance (test concentration not listed); 330,000 compounds, 0.21% hits; AID 1053175;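 active = OD600 absorbance below the run mean of sample wells minus 3.6 SD, in any replicate, cut at about 0.56 in these data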;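 also: stock transfer was 300 nL into about 60 µL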
HNF4A DNA FP = change in binding of human HNF4 alpha to DNA; HNF4a-FITC DNA binding, fluorescence polarization, 1 h; activity change, % at 10 µM; P41235; 360,000 compounds, 0.3% hits; in the data active = activity change above about 30%, passing the limit was not always enough;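 also: controls were the assay level and a saturating level of protein; the project sought stronger binding though the title names inhibitors; some compounds called inactive have numbers as strong as hits; positive values seem to mean higher polarization but the record does not say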
MLL AF4-AF9 inh = inhibitors of human MLL-AF4/AF9 interaction; P42568; AlphaScreen, biotin-AF4 peptide binding to FLAG-AF9; inhibition, % at 10 µM; 350,000 compounds, 0.47% hits; AID 651704;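 active = every replicate reaching a set inhibition limit, whatever the replicate mean, cut at about 25% in these data; inconclusive = mean inhibition reaches that limit but some replicates miss it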;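 also: 0% = plate neutral control median and 100% = total signal loss; the record names both 10 and 1 µM as test concentration; the first replicate is given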
Target sequence (P42568 whole entry, looked up): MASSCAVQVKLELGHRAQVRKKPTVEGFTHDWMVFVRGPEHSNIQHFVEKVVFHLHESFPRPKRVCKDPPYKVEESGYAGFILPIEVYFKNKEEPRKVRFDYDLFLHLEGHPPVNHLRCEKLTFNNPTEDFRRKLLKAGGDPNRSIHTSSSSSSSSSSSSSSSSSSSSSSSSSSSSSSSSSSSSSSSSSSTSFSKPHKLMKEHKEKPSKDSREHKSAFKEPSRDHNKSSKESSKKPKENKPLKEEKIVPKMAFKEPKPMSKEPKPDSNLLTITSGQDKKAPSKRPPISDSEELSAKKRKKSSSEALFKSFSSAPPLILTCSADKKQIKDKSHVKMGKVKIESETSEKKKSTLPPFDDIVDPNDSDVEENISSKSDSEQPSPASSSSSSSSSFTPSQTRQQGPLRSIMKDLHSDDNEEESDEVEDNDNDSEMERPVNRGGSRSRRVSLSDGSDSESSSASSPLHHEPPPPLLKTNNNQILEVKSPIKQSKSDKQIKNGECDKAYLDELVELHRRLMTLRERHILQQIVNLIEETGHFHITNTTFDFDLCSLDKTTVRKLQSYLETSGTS
Vif TR-FRET = inhibitors of Vif binding to APOBEC3G peptide, primary screen, biochemical, TR-FRET, GST-Vif 1-94, biotin-A3G peptide, dose response retest (AID 1117319). TR-FRET GST-Vif / biotin-A3G peptide binding; higher % means a stronger effect; test concentration not given here; strong numbers were not always called active. 260,000 compounds, 0.57% hits. one-dose inhibition, %; IC50 in µM for titrated hits;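 active = above the screen mean plus three standard deviations and confirmed in dose response; inconclusive = results disagree or hit not tested in dose response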;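 also: Vif residues 1-94 fused to GST binding biotinylated APOBEC3G peptide 110-148; 0% = full assay without inhibitor and 100% = GST in place of GST-Vif; retest series ran down from 100 µM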
rRNA inh HTS = inhibitors of bacterial rRNA selective over humanized ribosomes; E. coli WT GFP vs humanized-ribosome RFP mutants, fluorescence, 24 h; hits give low values; DMSO median 0, no signal -100; GFP signal change (wild-type ribosome), % (concentration not given with the values); 350,000 compounds, 1.6% hits;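 active = significant combined selectivity score with lowered wild-type GFP, culture density cut under 30%, mutant RFP and density less affected; inactive = any of these conditions unmet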; also: one replicate is shown; some compounds called inactive have numbers as strong as hits
rRNA inh HTS OD600 = recorded beside rRNA inh HTS, whose call it bears; OD600 change, %; measured here: OD600 growth;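 optical density of the mix in the first replicate; 0 = DMSO median and -100 = no signal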
rRNA inh HTS RFP = also measured in rRNA inh HTS; calls as there; RFP signal change, %; measured here: RFP humanized mutant strains;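 first replicate; 0 = DMSO median and -100 = no signal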
Numbers without * were called inactive; i = inactive; ? = inconclusive; · = no result given.

mol	FGF22 binding	ALR H2O2 inh	E coli growth	HNF4A DNA FP	MLL AF4-AF9 inh	Vif TR-FRET	rRNA inh HTS	rRNA inh HTS OD600	rRNA inh HTS RFP
O=S(=O)(c1cc(Cl)c(Cl)cc1Cl)N1CCN2CCCC2C1 (stereo not drawn)	i	0	0.65	0.0	0.8	·	-6	-4	4.2
C[C@@H]1CN([C@@H](C)CO)C(=O)c2cc(C3=CCCC3)cnc2O[C@H]1CN(C)C(=O)c1cccnc1	i	·	·	·	-1.8	·	1	2	-4.5
C[C@@H]1CCCCO[C@H](CN(C)C(=O)Cc2ccccc2)[C@@H](C)CN([C@H](C)CO)C(=O)c2cc(NS(=O)(=O)c3ccc(F)cc3)ccc2O1	i	·	·	·	-2.2	·	1	-11	1.7
COc1ccc2cc(S(=O)(=O)NC3CC(C)(C)NC(C)(C)C3)ccc2c1	i	-3	0.67	-1.8	-6.6	4%	6	0	4.1
COc1ccc(NC(=O)C2C3C=CC4(CN(Cc5cccnc5)C(=O)C24)O3)c(OC)c1 (stereo not drawn)	·	-12	0.7	1.5	·	4%	·	·	·
O=C(CCSCc1cccc(Cl)c1)NC1CCCC1	·	-8	0.65	0.7	·	-1%	·	·	·
Cc1[nH]c2ccccc2c1N=Nc1c(C)n(C)n(-c2ccccc2)c1=O	i	99*	0.71	2.1	4.8	?	18	6	0.7
CCCC[C@H]1COCCS(=O)(=O)N1Cc1ccc(Br)cc1	i	·	·	-0.8	3.5	·	-46	-78	-18
O=[N+]([O-])c1cc(/C=N/NC(=S)Nc2ccccc2Cl)ccc1Cl	i	1	·	-0.8	-20	9%	-9	-9	-0.6
C/C(=N\NC(=O)c1nn(C)cc1Cl)c1ccncc1	·	0	·	1.0	·	-4%	·	·	·
Cc1ccc(S(=O)(=O)N2CCOCC2)cc1C(=O)OCC(=O)Nc1ccc2[nH]c(=O)[nH]c2c1	·	-35	0.63	-0.5	-0.3	1%	10	-3	-1.9
Cc1ccc(S(=O)(=O)N[C@H]2CC[C@H](CC(=O)N3CCC(Cc4ccccc4)CC3)O[C@H]2CO)cc1	i	·	·	·	0.7	·	-6	-52	33
Cc1ccccc1NC(=O)NC1CCCCCCC1	i	2	0.69	1.1	-2.0	·	13	13	3.3
N#C[C@@H]1[C@H](c2ccc(C3=CCCC3)cc2)[C@H](CO)N1C(=O)Cc1ccncc1	i	·	·	·	-1.4	·	0	12	-2.2
C[C@H](CO)N1C[C@H](C)[C@@H](CN(C)S(=O)(=O)c2ccccc2)Oc2ccc(NC(=O)Cc3cn(C)c4ccccc34)cc2CC1=O	i	·	·	·	-1.2	·	-4	-2	-3.2
C[C@H]1CN([C@@H](C)CO)C(=O)c2cc(NS(=O)(=O)c3ccc(F)cc3)ccc2O[C@@H]1CN(C)S(=O)(=O)c1ccc(F)cc1	i	·	·	·	-2.6	·	-1	2	0.0
Cc1cc(NC(=O)[C@H](C)NC(=O)c2ccco2)ccc1Br	i	·	0.65	1.6	1.4	-15%	-4	-27	2.7
CCOC(=O)N1CCN(c2nc(-c3cccc(OC)c3)cc(C(F)(F)F)n2)CC1	·	-17	0.74	0.1	·	10%	·	·	·
COc1ccccc1S(=O)(=O)Cc1ccc(C(=O)NCc2ccc(C)cc2)o1	i	2	0.66	2.3	-6.1	-4%	1	0	-1.5
O=C(N[C@@H]1CC[C@H](CCNC(=O)C2CC2)O[C@@H]1CO)c1ccncc1	i	·	·	·	-2.0	·	2	2	-2.7
O=C(C[C@@H]1C[C@H]2c3cc(NC(=O)c4ccc5c(c4)OCO5)ccc3O[C@H]2[C@@H](CO)O1)NCCc1ccccc1	i	·	·	·	-11	·	-4	11	1.9
CC(C)n1cc(CN2CCN(CCc3ccccc3)C(CCO)C2)cn1 (stereo not drawn)	i	-13	0.71	0.2	-3.3	·	-1	10	-2.7
CC1(C)CC(=O)C2=C(C1)OC(N)=C(C#N)C2c1ccc2c(c1)OCO2 (stereo not drawn)	i	40	0.66	0.8	-5.5	-5%	6	3	1.3
Cc1nn(Cc2ccccc2Cl)c2sc(C(=O)NC(C)(C)C)cc12	·	1	0.67	-0.4	·	-2%	·	·	·
Cn1nnnc1Sc1ncnc2scc(-c3ccc(F)cc3)c12	·	7	0.69	21	·	-8%	·	·	·
Cc1ccc(NC(=O)c2ccc(OCc3c(C)noc3C)cc2)cc1C	i	21	0.69	-1.1	-0.3	·	-10	-22	-1.5
O=C(CN(C(=O)c1ccco1)c1cccc(F)c1)NCc1ccc(F)cc1	·	-3	0.79	-1.6	·	3%	·	·	·
O=C(CSc1nc2ccccc2[nH]1)c1ccco1	·	25	0.73	-0.8	·	33%	·	·	·
COCCNC(=O)C1CC(c2cccc([N+](=O)[O-])c2)=NO1 (stereo not drawn)	i	-2	0.65	-2.0	3.4	-7%	4	4	-8.0
C[C@@H]1CN([C@H](C)CO)C(=O)Cc2cc(NC(=O)Cc3ccccc3)ccc2O[C@H]1CN(C)C	i	·	·	·	-0.3	·	0	3	-2.6
Cc1noc(C)c1NC(=O)Nc1ccc2c(c1)C(=O)N([C@H](C)CO)C[C@H](C)[C@H](CN(C)Cc1ccc(Oc3ccccc3)cc1)O2	i	·	·	·	13	·	1	-22	5.7
Cn1nccc1C(=O)Nc1ccn(C23CC4CC(CC(C4)C2)C3)n1	·	·	0.72	1.7	·	22%	·	·	·
N#Cc1ccccc1CN1C(=O)NC2(CCCCCC2)C1=O	i	0	0.68	2.2	-0.6	-1%	2	0	1.6
COC(=O)CNc1ccc2c(c1)OCO2	·	7	0.75	-28	·	26%	·	·	·
CCCOC(=O)NC(CC)COC(=O)Nc1cc(C)ccc1C (stereo not drawn)	·	-13	0.68	0.5	·	3%	·	·	·
COc1ccc(CN2CCN(CCC(C)C)C(CCO)C2)cc1Cn1cccn1 (stereo not drawn)	·	-2	0.73	-2.0	-0.1	20%	9	2	4.0
COc1ccc(NC(=O)C2CSC3c4ccccc4C(=O)N23)cc1 (stereo not drawn)	·	28	0.67	-1.0	-4.2	5%	·	·	·
O=C1C2CC=CCC2C(=O)N1CC1CCCO1 (stereo not drawn)	·	-8	0.66	4.3	·	?	·	·	·
C[C@@H]1CN([C@@H](C)CO)S(=O)(=O)c2ccc(C#Cc3ccccn3)cc2O[C@@H]1CN(C)C	i	·	·	·	0.3	·	-1	3	-4.9
COc1cccc(-c2cnc3c(c2)C(=O)N([C@@H](C)CO)C[C@H](C)[C@@H](CN(C)CC2CCCC2)O3)c1	i	·	·	·	-0.2	·	-3	3	-0.4
O=C(c1ccc(NC2=NC3CS(=O)(=O)CC3S2)cc1)N1CCN(Cc2ccccc2)CC1 (stereo not drawn)	i	·	0.71	2.5	?	-1%	9	6	5.0
CCOc1ccccc1Oc1cn[nH]c1-c1ccc(O)cc1O	i	?	0.62	1.5	-1.3	·	-42	-67	-9.1
OCc1c[nH]c2ccccc12	i	-13	0.66	12	0.9	·	2	-4	9.9
Cc1ccccc1OCc1nnc(SCC(=O)O)n1-c1cccc(Cl)c1	i	20	0.67	3.4	-0.3	·	-36	-42	-5.4
CCn1c(=O)c([N+](=O)[O-])c(NCC(O)c2ccccc2)c2ccccc21 (stereo not drawn)	·	-10	0.65	1.3	·	·	·	·	·
C=CC[n+]1cccc(-c2cc3ccc(C)cc3[nH]2)c1	i	0	0.65	-1.1	7.6	-3%	8	12	1.8
O=C(c1ccc(F)c(F)c1)N1CCC2(CC1)NCCc1[nH]cnc12	i	-15	0.67	0.8	2.2	-6%	4	0	-0.9
COc1cc(-c2c(-c3ccsc3)sc3ccccc23)cc(OC)c1OC	i	-2	0.74	-5.2	0.5	·	10	3	-6.1
C[C@@H]1CN([C@@H](C)CO)C(=O)c2cc(C#C[C@@H](C)O)cnc2O[C@H]1CN(C)C(=O)CN(C)C	i	·	·	·	-2.9	·	4	-10	-1.3
CC(C)NC(=O)N(C)C[C@@H]1Oc2cc(Br)ccc2S(=O)(=O)N([C@H](C)CO)C[C@@H]1C	i	·	·	·	-2.3	·	1	5	-2.6
Cc1cccc(NC(=O)CNC(=O)c2sc3ccccc3c2Cl)n1	·	0	0.66	2.8	-2.5	-35%	-2	-5	1.9
COc1ccc(/C=C/C(=O)N2CCC(C(N)=O)CC2)cc1S(=O)(=O)N1CCOCC1	i	-6	0.69	-2.0	-1.0	16%	9	-4	-3.3
COc1ccc(NC(=O)c2cc3c(CO)cnc(C)c3oc2=Nc2cccc(C)c2)c(OC)c1	i	·	0.68	-2.3	-1.3	5%	20	9	1.0
O=C(C1CCN(Cc2cc(Cl)ccc2O)CC1)N1CCN(Cc2ccccc2)CC1	·	-12	0.65	-1.7	·	4%	·	·	·
Cc1cc(C)c2cc(C(O)c3nnnn3Cc3ccccc3)c(=O)[nH]c2c1 (stereo not drawn)	·	-1	0.67	0.5	·	24%	·	·	·
O=C(O)c1cccc2c1C(=O)N(c1ccccc1)C2	i	-11	0.66	0.4	-2.2	6%	1	8	-1.1

(more compounds)
mol	FGF22 binding	ALR H2O2 inh	E coli growth	HNF4A DNA FP	MLL AF4-AF9 inh	Vif TR-FRET	rRNA inh HTS	rRNA inh HTS OD600	rRNA inh HTS RFP
CCOc1ccc(N(CC(=O)NC2CCCC2)C(=O)Cn2nnc(-c3ccc(C)o3)n2)cc1	i	·	0.66	1.5	1.2	·	-4	-10	2.3
COc1ccc(-n2nc(C(=O)NCC(=O)Nc3ccc(F)cc3)c3ccccc3c2=O)cc1	i	0	0.69	1.6	-6.7	·	1	-15	-2.4
CC1=CS/C(=C(/C#N)C(=O)N2CCCCC2)N1c1ccccc1	·	-1	·	-3.9	·	-4%	·	·	·
OC(c1ccccc1)c1ncc(-c2cccc(F)c2)[nH]1 (stereo not drawn)	i	·	·	0.1	-1.9	·	14	18	2.6
C/C=C/c1ccc([C@H]2[C@@H](CNC(=O)CC)N(C(=O)CC)[C@H]2CO)cc1	i	·	·	·	-0.6	·	-2	2	0.0
COc1cccc(NC(=O)Nc2ccc3c(c2)C(=O)N(C)C[C@H](OC)[C@@H](C)CN[C@H](C)CO3)c1	i	·	·	·	15	·	-4	2	-0.6
C[C@@H]1CN([C@H](C)CO)C(=O)c2cc(NS(=O)(=O)c3cn(C)cn3)ccc2O[C@@H]1CN(C)C	i	·	·	·	-2.3	·	7	-2	1.5
CCOC(=O)C1=C(COC(=O)CSc2ccc(C)cc2C)NC(=O)NC1C (stereo not drawn)	i	·	0.69	1.2	-1.5	-1%	-3	3	1.8
Cc1ccc(Cn2ccc(=O)c(Cc3c(Cl)cccc3Cl)c2C)cc1	·	-10	0.69	2.5	·	22%	·	·	·
C[C@@H]1CCCCO[C@@H](CN(C)S(=O)(=O)c2ccccc2)[C@@H](C)CN([C@H](C)CO)C(=O)c2cc(NC(=O)Nc3ccc4c(c3)OCO4)ccc2O1	i	·	·	·	0.6	·	-1	5	-1.6

Shown as a hit in ALR H2O2 inh, of those listed so far:
Compound,FGF22 binding,ALR H2O2 inh,HNF4A DNA FP,MLL AF4-AF9 inh,Vif TR-FRET,rRNA inh HTS,rRNA inh HTS OD600,rRNA inh HTS RFP
Cc1[nH]c2ccccc2c1N=Nc1c(C)n(C)n(-c2ccccc2)c1=O,i,99*,2.1,4.8,?,18,6,0.7

This is a subset. The share of hits here may be higher or lower than overall.
